UUG_fidelity – modulators of yeast start codon fidelity, primary screen, whole organism, S. cerevisiae, single point, plate reader; activity score, % at 18.7 µM; hit rate 0.13% among 350,000; S. cerevisiae UUG-firefly luciferase reporter, luminescence/redox ratio; AID 602363, 2012;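 active = replicate mean at a twofold rise or more, about +100% in these data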;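 note: firefly luciferase made from a UUG start codon reports start codon fidelity; reporter light over untreated wells divided by growth signal over untreated wells; some hits fall short of that in this replicate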
Env_fusion_inh – inhibitors of HIV-1 Env-driven cell-cell fusion, primary screen, HeLa-JRFL effector, CEM21 target cells, luciferase; inhibition, % at 12.3 µM; hit rate 1.1% among 360,000; AID 651610, 2012;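 active = mean replicate inhibition score of at least 50 and every replicate individually at or above 50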;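 note: 0% = plate neutral controls and 100% = maraviroc near 300 nM; one replicate is shown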
* = called active by the depositor; & = joins results of further samples; [ ] = another dose, or the depositor's remark. These rows are one share of the data; rates above refer to the full screens.

SMILES UUG_fidelity Env_fusion_inh
CC(C)C#Cc1ccc2c(c1)O[C@H](CN(C)Cc1ccccn1)[C@H](C)CN([C@@H](C)CO)S2(=O)=O 2 -14[16.7_µM]
C/C=C/c1cnc2c(c1)C(=O)N([C@@H](C)CO)C[C@H](C)[C@H](CN(C)C(=O)NC1CCCC1)O2 3 -7[16.7_µM]
COc1ccc(NC(=O)Nc2ccc3c(c2)C(=O)N([C@@H](C)CO)C[C@@H](C)[C@H](CN(C)C(=O)Nc2ccc(C(F)(F)F)cc2)OCCCC[C@@H](C)O3)cc1 -23 35[16.7_µM]
Cc1noc(C)c1NC(=O)Nc1ccc2c(c1)C(=O)N([C@@H](C)CO)C[C@@H](C)[C@@H](CN(C)C(=O)Nc1ccccc1)OCCCC[C@@H](C)O2 15 7[16.7_µM]
O=S(=O)(NCC[C@@H]1CC[C@H](NS(=O)(=O)c2ccccc2Cl)[C@H](CO)O1)c1ccc(Cl)cc1 -11 50[16.7_µM]
C[C@@H]1CN([C@@H](C)CO)S(=O)(=O)c2ccc(-c3cccnc3)cc2O[C@H]1CN(C)Cc1cccnc1 -10 4[16.7_µM]
C[C@@H]1CN([C@H](C)CO)S(=O)(=O)c2ccc(C#Cc3cccnc3)cc2O[C@H]1CN(C)C(=O)CN(C)C 10 3[16.7_µM]
O=C(C[C@H]1CC[C@H]2[C@@H](COC[C@H](O)CN2S(=O)(=O)c2ccccc2)O1)N1CCOCC1 -11 3[16.7_µM]
CN(C)C(=O)C[C@H]1C[C@@H]2c3cc(NC(=O)NC4CCCC4)ccc3O[C@@H]2[C@H](CO)O1 -7 -5[16.7_µM]
Cc1noc(C)c1S(=O)(=O)N(C)C[C@@H]1OCCCC[C@H](C)Oc2ccc(NS(=O)(=O)c3cn(C)cn3)cc2C(=O)N([C@@H](C)CO)C[C@H]1C 6 -12[16.7_µM]
COc1ccc(S(=O)(=O)Nc2ccc3c(c2)C(=O)N([C@@H](C)CO)C[C@H](C)[C@@H](CN(C)C(=O)C2CCCCC2)OCCCC[C@@H](C)O3)cc1 3 5[16.7_µM]
C[C@H]1CN([C@@H](C)CO)C(=O)Cc2cc(NC(=O)NC3CCCCC3)ccc2O[C@H]1CN(C)C(=O)Nc1ccc2c(c1)OCO2 17 -8[16.7_µM]
CNC[C@@H]1OCc2cnnn2CCCC(=O)N([C@@H](C)CO)C[C@H]1C -4 2[16.7_µM]
COc1ccc(S(=O)(=O)N(C)C[C@H]2Oc3ccc(NC(=O)Nc4ccc5c(c4)OCO5)cc3CC(=O)N([C@@H](C)CO)C[C@H]2C)cc1 -1 9[16.7_µM]
C[C@@H]1CCCCO[C@@H](CN(C)S(=O)(=O)c2ccc(Cl)cc2)[C@H](C)CN([C@H](C)CO)C(=O)c2cc(NC(=O)Nc3ccc(C(F)(F)F)cc3)ccc2O1 -1 25[16.7_µM]

Reprinted from the part before: 4 compounds; new compounds follow.
SMILES UUG_fidelity Env_fusion_inh
C[C@H]1CN([C@@H](C)CO)C(=O)Cc2cc(NC(=O)NC3CCCCC3)ccc2O[C@H]1CN(C)C(=O)Nc1ccc2c(c1)OCO2 17 -8[16.7_µM]
CNC[C@@H]1OCc2cnnn2CCCC(=O)N([C@@H](C)CO)C[C@H]1C -4 2[16.7_µM]
COc1ccc(S(=O)(=O)N(C)C[C@H]2Oc3ccc(NC(=O)Nc4ccc5c(c4)OCO5)cc3CC(=O)N([C@@H](C)CO)C[C@H]2C)cc1 -1 9[16.7_µM]
C[C@@H]1CCCCO[C@@H](CN(C)S(=O)(=O)c2ccc(Cl)cc2)[C@H](C)CN([C@H](C)CO)C(=O)c2cc(NC(=O)Nc3ccc(C(F)(F)F)cc3)ccc2O1 -1 25[16.7_µM]
CCC(=O)N(C)C[C@H]1Oc2ncc(-c3ccccc3OC)cc2C(=O)N([C@H](C)CO)C[C@@H]1C -1 -2[16.7_µM]
C[C@@H]1CCCCO[C@H](CN(C)Cc2ccccc2)[C@H](C)CN([C@H](C)CO)C(=O)c2cc(NC(=O)C3CCCCC3)ccc2O1 8 -6[16.7_µM]
C[C@H]1CCCCO[C@@H](CN(C)C(=O)NC2CCCCC2)[C@@H](C)CN([C@@H](C)CO)C(=O)c2cc(NC(=O)c3ccccc3)ccc2O1 39 6[16.7_µM]
C[C@@H]1CN([C@@H](C)CO)C(=O)c2cc(-c3ccc(F)cc3)cnc2O[C@@H]1CN(C)C(=O)c1cccnc1 -6 30[16.7_µM]
CCCNC(=O)N[C@@H]1CC[C@H](CC(=O)NC2CCC2)O[C@@H]1CO -7 -4[16.7_µM]
COc1cccc(C#Cc2ccc([C@H]3[C@@H](C#N)N(C(=O)C4CC4)[C@@H]3CO)cc2)c1 -1 -4[16.7_µM]
C[C@@H]1CN([C@@H](C)CO)S(=O)(=O)c2ccc(C#CC(C)(C)O)cc2O[C@@H]1CN(C)C(=O)C1CCC1 11 -8[16.7_µM]
COc1ccc(NC(=O)N(C)C[C@@H]2Oc3ccc(NC(=O)Nc4ccc(C(F)(F)F)cc4)cc3CC(=O)N([C@@H](C)CO)C[C@@H]2C)cc1 -8 -14[16.7_µM]
C[C@@H]1CN([C@@H](C)CO)C(=O)Cc2cc(NC(=O)Nc3ccc(C(F)(F)F)cc3)ccc2O[C@@H]1CN(C)Cc1ccc(-c2ccccc2)cc1 4 2[16.7_µM]
C[C@H](CO)N1C[C@H](C)[C@H](CN(C)Cc2ccccc2)Oc2ncc(/C=C/c3ccccc3)cc2C1=O 7&7 8&-2[16.7_µM]
C[C@@H](NC(=O)C[C@H]1CC[C@H]2[C@@H](COC[C@@H](O)CN2Cc2ccc(C(F)(F)F)cc2)O1)c1ccccc1 1 20[16.7_µM]
C[C@@H]1CCCCO[C@@H](CN(C)Cc2ccc(C(F)(F)F)cc2)[C@@H](C)CN([C@H](C)CO)C(=O)c2cc(NS(=O)(=O)c3ccccc3)ccc2O1 -2 5[16.7_µM]
CCCN(C)C[C@H]1OCCCC[C@H](C)Oc2ccc(NS(=O)(=O)c3ccccc3)cc2C(=O)N([C@@H](C)CO)C[C@@H]1C 15 10[16.7_µM]
Cc1noc(C)c1NC(=O)NCC[C@H]1CC[C@@H](NC(=O)Nc2cccc(F)c2)[C@@H](CO)O1 10 -72[16.7_µM]
COc1ccc(S(=O)(=O)Nc2ccc3c(c2)C(=O)N([C@H](C)CO)C[C@@H](C)[C@@H](CN(C)C(=O)CCCN(C)C)OCCCC[C@H](C)O3)cc1 8 6[16.7_µM]
CN1C(=O)c2cc(NS(=O)(=O)c3ccc(Cl)cc3)ccc2OC[C@@H]2O[C@H](CC(=O)N3CCc4ccccc4C3)CC[C@H]21 10 27[16.7_µM]
C[C@H](CO)N1C[C@H](C)[C@H](CN(C)S(=O)(=O)c2cccs2)Oc2ccc(NS(=O)(=O)c3ccc(Cl)cc3)cc2CC1=O 4 55*[16.7_µM]
Cc1ccc(S(=O)(=O)NCC[C@H]2CC[C@H](NC(=O)c3cccnc3)[C@H](CO)O2)cc1 -11 -15[16.7_µM]
C[C@@H]1CN([C@@H](C)CO)S(=O)(=O)c2ccc(C#Cc3ccccc3F)cc2O[C@H]1CN(C)CC1CCOCC1 5 21[16.7_µM]
C[C@@H]1CCCCO[C@H](CN(C)Cc2ccccc2)[C@H](C)CN([C@@H](C)CO)C(=O)c2cc(NS(=O)(=O)c3ccccc3)ccc2O1 39 13[16.7_µM]
O=C(NCC[C@@H]1CC[C@H](NC(=O)C2CC2)[C@H](CO)O1)c1cnccn1 -13 2[16.7_µM]
C[C@@H]1CN([C@H](C)CO)C(=O)c2cc(C#Cc3ccncc3)cnc2O[C@H]1CN(C)S(=O)(=O)c1ccccc1F 1 30[16.7_µM]
N#C[C@H]1[C@H](c2ccc(C#Cc3cccc(F)c3)cc2)[C@@H](CO)N1C(=O)C1CCCC1 -9 3[16.7_µM]
O=C(Nc1ccc(F)cc1)N[C@H]1CC[C@@H](CC(=O)N2CCOCC2)O[C@@H]1CO -11 6[16.7_µM]
COc1ccc(CN(C)C[C@H]2OCCCC[C@@H](C)Oc3ccc(NC(=O)Nc4ccc5c(c4)OCO5)cc3C(=O)N([C@H](C)CO)C[C@H]2C)cc1 21 -41[16.7_µM]
CCC(=O)Nc1ccc2c(c1)C(=O)N(C)[C@H]1CC[C@H](CC(=O)NCc3ccccc3Cl)O[C@H]1CO2 0 5[16.7_µM]
C/C=C/c1ccc([C@H]2[C@H](C#N)N(c3nc(-c4ccccc4)cs3)[C@H]2CO)cc1 -14 8[16.7_µM]
Cc1ccc(S(=O)(=O)Nc2ccc3c(c2)C(=O)N([C@H](C)CO)C[C@@H](C)[C@H](CN(C)S(=O)(=O)c2ccccc2)OCCCC[C@@H](C)O3)cc1 -11 11[16.7_µM]
C[C@@H]1CN([C@@H](C)CO)S(=O)(=O)c2ccc(-c3ccccc3)cc2O[C@H]1CN(C)C(=O)C1CCCCC1 33 40[16.7_µM]
C[C@H](CO)N1C[C@H](C)[C@H](CN(C)Cc2ccccc2C(=O)O)Oc2ncc(C3=CCCCC3)cc2C1=O 3 -43[16.7_µM]
C[C@@H]1CN([C@H](C)CO)C(=O)c2cc(-c3ccc(C#N)cc3)cnc2O[C@H]1CN(C)Cc1cccnc1 -8 2[16.7_µM]
Cc1nn(C)cc1NC(=O)C[C@H]1CC[C@H]2[C@@H](COc3ccc(NC(=O)NC(C)C)cc3C(=O)N2C)O1 20 -13[16.7_µM]
COc1ccc(NC(=O)Nc2ccc3c(c2)C(=O)N([C@H](C)CO)C[C@H](C)[C@H](CN(C)S(=O)(=O)c2cn(C)cn2)O3)cc1 -8 10[16.7_µM]
C[C@@H]1CN([C@@H](C)CO)C(=O)c2cccc(NS(=O)(=O)c3cn(C)cn3)c2O[C@@H]1CN(C)C(=O)Nc1ccccc1 -15 -159[16.7_µM]
CCC(=O)N1C[C@H](C)[C@@H](OC)CN(C)C(=O)c2cc(NS(=O)(=O)CC)ccc2OC[C@@H]1C -2 4[16.7_µM]
CN(C)C(=O)C[C@@H]1C[C@@H]2c3cc(NC(=O)NC4CCCC4)ccc3O[C@@H]2[C@@H](CO)O1 1 -16[16.7_µM]
C[C@@H]1CN([C@@H](C)CO)C(=O)Cc2cc(NC(=O)Cc3ccccc3)ccc2O[C@@H]1CN(C)C(=O)Nc1ccccc1 -3 12[16.7_µM]
CC(C)CC#Cc1cnc2c(c1)C(=O)N([C@H](C)CO)C[C@@H](C)[C@@H](CN(C)Cc1ccccc1C(=O)O)O2 19 -13[16.7_µM]
C[C@H](CO)N1C[C@H](C)[C@H](CN(C)C(=O)Nc2cc(F)ccc2F)Oc2ncc(-c3cccc(F)c3)cc2C1=O 7 -3[16.7_µM]
COc1cccc(C#Cc2ccc([C@H]3[C@@H](C#N)N(C(=O)C4CCC4)[C@@H]3CO)cc2)c1 -12 12[16.7_µM]
C[C@H](CO)N1C[C@H](C)[C@@H](CN(C)C(=O)Nc2ccc(C(F)(F)F)cc2)Oc2ccc(NC(=O)Cn3cnnn3)cc2CC1=O 86 6[16.7_µM]
C[C@@H]1CN([C@H](C)CO)S(=O)(=O)c2ccc(-c3ccccc3F)cc2O[C@H]1CN(C)C -1 -14[16.7_µM]
C[C@H](NC(=O)C[C@@H]1CC[C@@H](NC(=O)Nc2ccc3c(c2)OCO3)[C@@H](CO)O1)c1ccccc1 -1 7[16.7_µM]
Cc1ccc(S(=O)(=O)N(C)C[C@@H]2Oc3ccc(NS(=O)(=O)c4cccs4)cc3CC(=O)N([C@@H](C)CO)C[C@@H]2C)cc1 4 27[16.7_µM]
C[C@@H]1CN([C@@H](C)CO)C(=O)c2cc(NS(=O)(=O)c3ccccc3)ccc2O[C@@H](C)CCCCO[C@H]1CN(C)S(=O)(=O)c1ccccc1 -1 -27[16.7_µM]
COCC(=O)Nc1ccc2c(c1)[C@@H]1C[C@@H](CC(=O)N(C)C)O[C@H](CO)[C@@H]1O2 -9 -4[16.7_µM]
C[C@H](CO)N1C[C@H](C)[C@@H](CN(C)S(C)(=O)=O)OCCCC[C@H](C)Oc2ccc(NS(=O)(=O)c3cn(C)cn3)cc2C1=O -4 -8[16.7_µM]
CC(C)C#Cc1cnc2c(c1)C(=O)N([C@H](C)CO)C[C@H](C)[C@H](CN(C)C(=O)Cc1ccccn1)O2 -10 4[16.7_µM]
C[C@H](CO)N1C[C@H](C)[C@@H](CN(C)C(=O)Nc2ccc(F)cc2)Oc2cc(-c3ccncc3)ccc2S1(=O)=O -5 -13[16.7_µM]
C[C@H]1CN([C@@H](C)CO)C(=O)c2cccc(NC(=O)c3cnccn3)c2O[C@@H]1CN(C)Cc1ccc2c(c1)OCO2 10 3[16.7_µM]
C[C@H]1CCCCO[C@H](CN(C)S(=O)(=O)c2ccccc2)[C@@H](C)CN([C@@H](C)CO)C(=O)c2cc(NC(=O)CCC(F)(F)F)ccc2O1 23 -71[16.7_µM]
CN(C)CC(=O)N[C@H]1CC[C@H](CCn2cc(C3CC3)nn2)O[C@H]1CO 0 13[16.7_µM]
COCC#Cc1cnc2c(c1)C(=O)N([C@@H](C)CO)C[C@@H](C)[C@@H](CN(C)S(=O)(=O)c1ccccc1)O2 -5 7[16.7_µM]
C[C@@H]1CN([C@@H](C)CO)C(=O)c2cccc(NC(=O)c3cnccn3)c2O[C@@H]1CN(C)Cc1ccc(C(=O)O)cc1 -1 -23[16.7_µM]

Three entries out of the list, ordered by count of non-hydrogen atoms, smallest number first:
SMILES UUG_fidelity Env_fusion_inh
COCC(=O)Nc1ccc2c(c1)[C@@H]1C[C@@H](CC(=O)N(C)C)O[C@H](CO)[C@@H]1O2 -9 -4[16.7_µM]
C[C@H](CO)N1C[C@H](C)[C@@H](CN(C)C(=O)Nc2ccc(F)cc2)Oc2cc(-c3ccncc3)ccc2S1(=O)=O -5 -13[16.7_µM]
C[C@H]1CN([C@@H](C)CO)C(=O)c2cccc(NC(=O)c3cnccn3)c2O[C@@H]1CN(C)Cc1ccc2c(c1)OCO2 10 3[16.7_µM]
